A647 fluor = compound fluoresces in the A647 spectral region. Compound fluorescence, A647 channel (570/671 nm), Tris buffer. max dye-equivalent concentration, M. AID 592. 59,000 tested, under 10 active; active means above 1 µM dye equivalent; inconclusive means 0.1 to 1 µM; inactive means 0.1 µM or less;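 also: values scaled relative to a standard on each plate; highest value over a series up to 38 µM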
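Compound fluorescence was measured in 100 mM Tris buffer, pH 8.0, after 15 min at room temperature, using 570 nm excitation and 671 nm emission filters. Signal was normalized to a per-plate Alexa 647 standard curve and expressed as dye-equivalent concentration at each compound concentration.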
AID923 = qHTS Assay for Allosteric/Competitive Inhibitors of Caspase-1: Spectroscopic Profiling in AFC Spectral Region | compound fluorescence, AFC spectral region (405/520 nm); almost no hit is shown here | Potency, µM (series often up to 57.5 µM), for inactives: at the highest dose fluorescence increase, most hits filed as activators | 1.1% of 75,000 active | AID 923, 2007; active = well fitted activation curve with a large enough effect; inconclusive = small, poorly fitted or top-dose-only effect;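 also: potency is read from the fitted curve at half-maximal effect; 0% is about no effect; scaled to a free AFC standard on each plate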
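Baseline compound fluorescence (AFC region, 405 nm ex/520 nm em) taken from the intercept of kinetic reads with 50 nM caspase-1 and 5 uM Ac-WEHD-AFC; normalized to an on-plate AFC standard curve; compounds titrated up to 57 uM.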
A488 fluor = compound autofluorescence in A488 spectral region | AID 591 | 0.1% of 59,000 active | max dye equivalency, M | compound autofluorescence, A488 spectral region, dye equivalency; stronger effect = higher value; active = above 10 nM dye equivalent; inconclusive = 1 to 10 nM; inactive = 1 nM or less; about half of its hits are not listed in these tables;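 also: highest value over a series up to 38 µM; compound alone in buffer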
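Compounds pin-transferred into 100 mM Tris buffer, pH 8.0, incubated 15 min at room temperature, then imaged with 480 nm excitation/540 nm emission filters. Fluorescence converted to Alexa 488 dye-equivalent concentration via an on-plate six-point A488 standard curve.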
Resorufin fluor = resorufin region autofluorescence; Compound fluorescence, resorufin region 547/598 nm, buffer; stronger effect = higher value; max dye-equivalent concentration, M; 0.04% of 59,000 active; AID 588; active = above 10 nM dye equivalent; inconclusive = 1 to 10 nM; inactive = 1 nM or less; a few of its hits are not listed in these tables; also: highest value over a series up to 38 µM
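Compounds in 100 mM Tris, pH 8.0, incubated 15 min at room temperature, then fluorescence read at 547 nm excitation/598 nm emission. Signal converted to dye-equivalent concentration via an on-plate six-point resorufin standard curve, per compound concentration.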
TSHR ag = TSH receptor (human) agonism; 0.48% of 73,000 active; P16473; Potency, µM (series often up to 57.1 µM), without a hit: at the highest dose activation, most hits filed as activators; HEK293-CNG-TSHR cells (CNG channel as cAMP sensor), membrane potential dye, cAMP; active = well fitted activation curve of enough size with the parental cells flat; inconclusive = any curve in the parental cells; inactive = parental cells flat and receptor cells flat or falling; also: potency is read from the fitted curve at half-maximal effect; % of control where 0% means no effect; weak receptor curves with flat parental cells got no call and are not listed
Target sequence (P16473 whole entry, looked up): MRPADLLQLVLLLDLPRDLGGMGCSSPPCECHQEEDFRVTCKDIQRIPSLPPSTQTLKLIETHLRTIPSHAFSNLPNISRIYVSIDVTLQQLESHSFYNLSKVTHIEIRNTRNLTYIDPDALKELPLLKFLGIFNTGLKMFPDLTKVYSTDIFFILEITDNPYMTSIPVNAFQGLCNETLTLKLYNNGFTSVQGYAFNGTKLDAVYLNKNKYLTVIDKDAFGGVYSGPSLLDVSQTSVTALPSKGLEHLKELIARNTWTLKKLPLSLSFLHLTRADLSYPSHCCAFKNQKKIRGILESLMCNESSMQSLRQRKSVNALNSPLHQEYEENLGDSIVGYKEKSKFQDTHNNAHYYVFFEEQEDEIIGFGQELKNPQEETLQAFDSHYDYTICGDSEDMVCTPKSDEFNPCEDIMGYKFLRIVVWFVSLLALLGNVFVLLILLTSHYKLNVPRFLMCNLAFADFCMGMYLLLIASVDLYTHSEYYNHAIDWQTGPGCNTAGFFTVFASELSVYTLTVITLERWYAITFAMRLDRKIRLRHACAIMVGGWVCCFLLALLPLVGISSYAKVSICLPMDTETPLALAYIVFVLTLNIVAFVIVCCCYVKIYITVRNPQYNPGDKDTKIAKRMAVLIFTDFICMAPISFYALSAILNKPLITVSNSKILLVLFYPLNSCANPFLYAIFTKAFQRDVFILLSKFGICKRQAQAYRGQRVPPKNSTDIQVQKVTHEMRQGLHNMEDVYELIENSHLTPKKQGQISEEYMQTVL
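HEK 293 cells stably expressing TSHR and a cAMP-gated CNG channel; parental CNG-only cells as counterscreen. Cells preloaded 60 min with membrane potential dye plus 100 uM RO 20-1724, then compound 30 min; fluorescence read at 590 nm.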
An asterisk follows results filed as active; i = inactive; ? = inconclusive; nt = not tested or not shown; [ ] = remark or other dose. This is a subset; count on the stated rates, not on these rows.

SMILES	A647 fluor	AID923	A488 fluor	Resorufin fluor	TSHR ag
Cc1onc(C(=O)N2CCC(C(N)=O)CC2)c1-c1ccccc1Cl	nt	1.0%	nt	nt	2.6%
CSc1nc2ccccc2c(=O)n1N	nt	1.3%	nt	nt	4.0%
CC1CCCCC1NC(=O)C1CCN(C(=O)NC2CCCCC2)CC1 (stereo not drawn)	3.1e-09	0.6%	i	i	-0.9%
CCCCN(C)S(=O)(=O)c1cc(Br)cc2c1N(C(=O)C1CC1)CC2	1e-09	-1.0%	i	i	?
CC(C)C(=O)Nc1nnc(SCC(=O)NC2CC2)s1	1e-09	-0.6%	i	i	-10.5%
CC1=C(C(=O)Nc2ccccn2)C(c2ccc(N(C)C)cc2)n2ncnc2N1 (stereo not drawn)	1e-09	0.6%	i	i	-1.0%[11.4 µM]
CCC(=O)c1ccc(OCCN2CCOCC2)cc1	7.2e-09	1.7%	i	i	-6.2%
Cc1cccc(N2CCCn3c2nc2c3c(=O)n(CCN3CCOCC3)c(=O)n2C)c1	2.73e-08	-0.5%	i	i	-21.0%
CCn1c(N)c(C(=O)NCc2ccco2)sc1=S	1.09e-08	-2.0%	i	i	-2.2%
CCC(C)N1CC(O)=C(c2nc3ccccc3[nH]2)C1=N (stereo not drawn)	5.19e-08	-0.8%	i	i	-3.0%
CCCNS(=O)(=O)c1cccc2cccnc12	nt	0.5%	nt	nt	0.1%
O=C(CN1CCN(Cc2ccccc2)CC1)NC(=O)NC1CCCCC1	1.03e-08	0.1%	i	i	13.0%
CCOc1ccc(-c2noc(-c3cccnc3)n2)cc1OC	9.2e-09	-0.6%	i	i	-12.9%[11.4 µM]
O=C(C1CCN(S(=O)(=O)c2cnc[nH]2)CC1)N1CCc2ccccc2C1	7.5e-09	-0.6%	i	i	nt
Cc1ccc(C(=O)NCCCn2ccnc2)o1	nt	2.6%	nt	nt	-1.6%
CC(C)(C)N1C(=O)[C@H]2[C@H]3[C@H](O)[C@H](O)C/C(=N/OCc4ccccc4)[C@@H]3CC[C@@H]2C1=O	nt	-1.7%[11.5 µM]	nt	nt	-0.8%[11.4 µM]
CCOC(=O)CSc1nc2c(c(-c3ccc(C)o3)c1C#N)CCCC2	nt	-0.4%	nt	nt	?
CN(C)c1ccc(-c2nn3c(-c4ccc(Cl)cc4Cl)nnc3s2)cc1	1.73e-08	-0.4%	i	i	10.5%
O=C(NCCO)c1ccc(-n2c(=O)c(=O)[nH]c3ccccc32)cc1	nt	0.5%	nt	nt	-1.2%
O=C(c1ccco1)N1CCN(c2nc3ccccc3n3nnnc23)CC1	4.25e-08	5.3%	i	i	19.5%
Nc1nc2n(n1)C(c1cccs1)CC(c1ccc(F)cc1)N2 (stereo not drawn)	5.8e-09	nt	i	i	nt
N/C(=N\O)c1ccc(NC(=O)c2cccs2)cc1	1e-09	-1.1%	i	i	2.2%
COc1ccc(Nc2ncnc3c2cnn3Cc2ccccc2)cc1	4.33e-08	-0.5%	i	i	-13.6%
COC(=O)COc1ccc(S(=O)(=O)NCc2ccco2)cc1	2.59e-08	-2.8%	i	i	-3.1%
CCOC(=O)N1CCN(C(=O)CN(C2CCCCC2)S(=O)(=O)c2ccc(C)cc2)CC1	nt	-1.1%	nt	nt	5.8%

(cont.)
SMILES	A647 fluor	AID923	A488 fluor	Resorufin fluor	TSHR ag
NS(=O)(=O)c1ccc(CCNC(=O)CCC2COc3ccccc3O2)cc1 (stereo not drawn)	1.79e-08	-1.5%	i	i	?
Cc1cc(C)c2[nH]c(=O)c(C(c3nnnn3C3CCCC3)N3CCOCC3)cc2c1 (stereo not drawn)	5.4e-08	2.7%	i	i	3.2%
COc1ccc(OCCCC(=O)Nc2nncs2)cc1	4.35e-08	2.8%	i	i	1.6%
CS(=O)(=O)N(CC(=O)Nc1ccccc1C(=O)N1CCOCC1)c1ccc2c(c1)OCO2	1e-09	-0.6%	i	i	-1.3%
Nc1ccc2nc3n(c(=O)c2c1)CCC3	nt	-0.7%	nt	nt	1.6%
COC(=O)c1ccc2c(=O)n(CC3CCCO3)c(SCC(=O)Nc3ccccc3OC)nc2c1 (stereo not drawn)	1e-09	-0.1%	i	i	?
Cc1cc(C(=O)CSc2nnc(C3COc4ccccc4O3)n2C)c(C)n1-c1ccc(F)cc1 (stereo not drawn)	4.14e-08	0.1%	i	i	?
O=C1C[C@H](c2ccccc2)[C@@H](c2ccc(Br)cc2)O1	nt	-1.1%[11.5 µM]	nt	nt	24.7%[11.4 µM]
C#CCNc1nc(C(C)C)nc2c1nnn2Cc1ccccc1F	1e-09	0.6%	i	i	0.5%
COc1nc(N(C)C)nc(-n2nnc(C(C)=O)c2C)n1	1.4e-09	0.2%	i	i	?
Cc1ccc(S(=O)(=O)Nc2cc(C(=O)N3CCOCC3)ccc2N2CCCCC2)cc1	1e-09	-1.1%	i	i	-0.3%
COC(=O)c1ccccc1NC(=O)CN(C)S(=O)(=O)c1ccc(OC)c(C)c1	5.1e-09	-1.0%	i	i	?
COc1ccc2[nH]cc(CCNc3cc(-c4ccoc4)ncn3)c2c1	1e-09	-2.6%	i	i	-2.7%
COc1ccc(NC(=O)C2CCN(Cc3cnn(-c4ccccc4)c3-n3cccc3)CC2)cc1OC	1.25e-08	-0.7%	i	i	6.7%
O=C(CSc1nn(-c2ccc(F)cc2)c(=S)s1)NC(=O)NCc1ccco1	6.4e-09	-0.3%	i	i	-5.5%[11.4 µM]
O=C(CN1C(=O)COc2ccccc21)N(CCCN1CCOCC1)CC1CC=CCC1 (stereo not drawn)	1e-09	0.6%	i	i	14.7%
c1ccc2[nH]c(N3CCOCC3)nc2c1	2.37e-08	1.0%	i	i	1.6%
COCCN1C(=O)C(=O)/C(=C(/O)c2ccc(OCC(C)C)cc2)C1c1cccnc1 (stereo not drawn)	8.3e-09	0.7%	i	i	-0.1%
CN(C(=O)c1cc2sccc2n1C)C1CCCCC1	5.31e-08	-0.1%	i	i	?
Cc1cc(O)ccc1Nc1nc(-c2sc(N)nc2C)cs1	3.34e-08	0.2%	i	i	5.8%
CN(CC(=O)O)S(=O)(=O)c1cc(Cl)ccc1Cl	5.08e-08	-0.6%	i	i	7.0%
Cc1nn(-c2ccccc2)c2sc(C(=O)n3cccn3)cc12	nt	6.0%	nt	nt	-1.0%
COc1ccc(-c2nnc(SCC(=O)N3CCOCC3)o2)cc1	1e-09	-3.0%	i	i	-11.1%
CCOC(=O)c1oc2ccc(S(=O)(=O)n3nc(-c4ccc(OC)cc4)cc3N)cc2c1C	nt	1.2%	nt	nt	11.8%
Clc1ccc(SCc2cn3ccsc3n2)cc1	5.17e-08	nt	i	i	nt

Continuation.
SMILES	A647 fluor	AID923	A488 fluor	Resorufin fluor	TSHR ag
CC(=O)NCCNc1nc(-c2ccccc2CN(C)C)nc2ccccc12	2.1e-09	-2.0%	i	i	1.1%
CCN(CC)C(=O)CP(=O)(c1ccccc1)c1ccccc1	nt	0.1%	nt	nt	-1.1%
O=C(NCc1cccc(F)c1)c1noc2c1CCCC2	nt	0.4%	nt	nt	0.4%
FC(F)(F)c1cc(-c2ccco2)nc(NCc2cccnc2)n1	3.84e-08	2.4%	i	i	?
CC(C)n1c(SCC(N)=O)nc2c1c(=O)[nH]c(=O)n2C	5.66e-08	0.9%	i	i	-2.4%
CC(C)[C@H](O)C1=CCCCC1=O	nt	-3.8%[11.5 µM]	nt	nt	-1.4%[11.4 µM]
Cc1ccc2[nH]c3c(c2c1)CN(C(=O)CN1CCN(c2ccccc2F)CC1)CC3	7.6e-09	18.3%	i	i	-3.6%
CC(C)C(c1nnnn1Cc1ccc(F)cc1)N1CCN(C(=O)c2ccco2)CC1 (stereo not drawn)	2.85e-08	3.3%	i	i	3.6%
C/C(N)=C(\C#N)C(=O)NCc1ccccn1	2.71e-08	0.1%	i	i	-8.0%
COCCSc1nnc(-c2cccc(C#N)c2)n1C	7.3e-09	1.8%	i	i	2.0%
CCOC(=O)C1CCCCN1Cc1cc(Cl)ccc1O (stereo not drawn)	nt	1.1%	nt	nt	?
O=C(O)/C(=C1/OC(=O)c2ccccc21)c1ccccc1	3.5e-09	-1.6%	i	i	4.3%
Cc1ccc(-n2nnnc2SCC(=O)Nc2ccccc2N2CCCCC2)cc1C	2.4e-09	0.8%	i	i	?
c1cncc(-c2nn3cnnc3s2)c1	8.3e-09	0.0%	i	i	-1.7%
CCC(C)N=C1SCC(C)(/C=N/O)S1 (stereo not drawn)	6.3e-09	1.3%	i	i	1.5%
CCOCCn1c(SCCc2ccccc2)nc2c1c(=O)[nH]c(=O)n2C	nt	-2.9%	nt	nt	-6.6%
O=C(NCCCN1CCOCC1)c1ccc(-n2c(=O)c(=O)[nH]c3ccccc32)cc1	nt	1.6%	nt	nt	2.8%
Cc1ccc2c(c1)N(CCC(=O)NCc1cccnc1)C(=O)CO2	1e-09	-0.5%	i	i	12.2%
O=C(NC1CCS(=O)(=O)C1)C12CC3CC(CC(C3)C1)C2 (stereo not drawn)	nt	1.3%	nt	nt	-3.6%
O=C(CC1(O)C(=O)Nc2ccc(Br)cc21)c1ccc2c(c1)OCO2 (stereo not drawn)	2.15e-08	1.4%	i	i	-2.4%
COc1ccc(CN(Cc2ccccn2)C(=O)CN2C(=O)COc3ccccc32)cc1	1e-09	1.7%	i	i	13.0%
Cc1ccc(NS(=O)(=O)c2cc(C(=O)N3CCOCC3)ccc2C)cc1C	1.37e-08	-0.4%	i	i	7.5%
Cc1cc(NC(=O)CSc2ccc3nnc(-c4cccs4)n3n2)no1	nt	1.1%	nt	nt	-5.9%
O=C(Cc1ccc(Cl)c(Cl)c1)OCCN1CCCC1	5.3e-09	-0.6%	i	i	?
CC1(C)C(=O)OC(c2cc(Br)ccc2O)C(C)(C)C1=O (stereo not drawn)	nt	1.6%	nt	nt	-5.3%

Next compounds:
SMILES	A647 fluor	AID923	A488 fluor	Resorufin fluor	TSHR ag
CC(=NCCCn1ccnc1)C1=C(O)c2ccccc2C1=O	1.5e-08	1.3%	i	i	1.4%
COc1ccccc1C(c1nnnn1C1CCCC1)N1CCN2CCCC2C1 (stereo not drawn)	2e-09	0.2%	i	i	?
CCn1c(=O)c2cc(C(=O)N3CCOCC3)sc2c2ccccc21	nt	1.9%	nt	nt	1.0%
COc1ccc(CN(Cc2ccncc2)C(=O)CCC(=O)O)cc1	3.18e-08	0.3%	i	i	?
O=C1CCCN1CN(C(=O)c1ccc2c(c1)OCO2)c1ccc(F)cc1	4.5e-08	-1.2%	i	i	5.4%
CCOc1c(OC)cccc1C1CC(=O)Nc2cc3c(cc21)OCCO3 (stereo not drawn)	nt	2.0%	nt	nt	25.1µM*
CCSc1nnc(NC(=O)C(CC)(C(F)(F)F)C(F)(F)F)s1	4.61e-08	nt	i	i	nt
CCOCCCNC(=O)C1c2ccccc2C(=O)N2CCc3ccccc3C12 (stereo not drawn)	2.3e-09	-0.5%	i	i	4.3%
Cc1ccc(C)c(Cn2c(C(C)O)nc3ccccc32)c1 (stereo not drawn)	1.44e-08	0.4%	i	i	3.98µM*
CC(=O)[C@@H]1CC[C@@H]2[C@@H]3CC=C4C[C@H](OS(=O)(=O)O)CC[C@@]4(C)[C@H]3CC[C@]21C	5.8e-09	-2.4%	i	i	-5.5%
COc1ccc(Cc2nnn(CC(=O)O)n2)cc1	5.4e-09	-1.0%	i	i	-0.1%
O=C(N/N=C\c1cccc(O)c1)c1ccncc1	1e-09	-0.8%[11.5 µM]	i	i	22.7%[11.4 µM]

In another format: results already given.
canonical_smiles | A647 fluor | AID923 | A488 fluor | Resorufin fluor | TSHR ag
CCSc1nnc(NC(=O)C(CC)(C(F)(F)F)C(F)(F)F)s1 | 4.61e-08 | nt | i | i | nt
CCOCCCNC(=O)C1c2ccccc2C(=O)N2CCc3ccccc3C12 (stereo not drawn) | 2.3e-09 | -0.5% | i | i | 4.3%
Cc1ccc(C)c(Cn2c(C(C)O)nc3ccccc32)c1 (stereo not drawn) | 1.44e-08 | 0.4% | i | i | 3.98µM*
